Assay outcomes deposited in PubChem BioAssay by several laboratories.
YopH PTP inh – YopH tyrosine phosphatase inhibitors, primary screen, biochemical, fluorescence Ex485/Em525 | YopH tyrosine phosphatase [Yersinia enterocolitica] | inhibition, %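 (about 10 µM by stock and volumes)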 | hit rate 0.16% among 140,000 | AID 898, 2007;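 active = inhibition of 50% or more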;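 also: controls were vehicle for no effect and minimum signal wells for full effect; inactives centre near -20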
RecA intein inh – Mtb RecA intein splicing inhibitors, primary screen, biochemical, fluorescence, HTS | inhibition, %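 (about 9 µM by stock and volumes)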 | hit rate 0.75% among 290,000 | AID 2221, 2009 | cell-free RecA intein splicing | Protein RecA (Mycobacterium tuberculosis (strain ATCC 25618 / H37Rv)), P9WHJ3; in the data active = inhibition above about 30%; inconclusive = no clear call, values can overlap the other calls;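 also: 0% = vehicle wells and 100% = reference inhibitor control wells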
Target sequence (P9WHJ3 whole entry, looked up): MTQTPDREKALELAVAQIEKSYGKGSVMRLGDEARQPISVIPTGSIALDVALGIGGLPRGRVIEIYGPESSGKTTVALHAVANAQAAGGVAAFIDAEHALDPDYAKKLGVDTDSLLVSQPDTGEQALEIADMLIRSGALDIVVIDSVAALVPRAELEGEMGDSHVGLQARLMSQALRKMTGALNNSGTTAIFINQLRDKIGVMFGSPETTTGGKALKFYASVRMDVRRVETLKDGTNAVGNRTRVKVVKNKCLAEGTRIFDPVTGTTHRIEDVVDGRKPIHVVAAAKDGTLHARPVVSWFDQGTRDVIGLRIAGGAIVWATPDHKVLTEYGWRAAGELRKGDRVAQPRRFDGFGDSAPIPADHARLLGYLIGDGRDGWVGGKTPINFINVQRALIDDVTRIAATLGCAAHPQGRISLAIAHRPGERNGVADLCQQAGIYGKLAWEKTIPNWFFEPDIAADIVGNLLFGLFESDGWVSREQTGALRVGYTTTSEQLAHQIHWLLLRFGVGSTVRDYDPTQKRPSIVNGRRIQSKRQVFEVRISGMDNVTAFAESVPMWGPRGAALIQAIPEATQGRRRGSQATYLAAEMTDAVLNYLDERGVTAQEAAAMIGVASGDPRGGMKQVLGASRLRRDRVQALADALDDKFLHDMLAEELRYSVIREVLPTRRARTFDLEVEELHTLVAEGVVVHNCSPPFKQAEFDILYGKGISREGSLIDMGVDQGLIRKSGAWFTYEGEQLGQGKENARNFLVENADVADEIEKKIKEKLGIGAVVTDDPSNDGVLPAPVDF
Mtb growth – M. tuberculosis H37Rv growth inhibitors, H37Rv strain (AID 1626); M. tuberculosis H37Rv growth inhibition; higher % means a stronger effect; inhibition, % at 10 µM, or IC50 in µM where a hit was titrated; hit rate 0.95% among 220,000;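 active = confirmed in a dose series; inconclusive = inhibition above 80% but not taken into the dose series; inactive = below 80% or under 30% at every dose of the series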;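 also: bacteria incubated seven days before Alamar blue readout; 0% = bacteria only wells and 100% = bacteria with antibiotic wells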
Mtb bLac sens – beta-lactam sensitization of Mtb H37Rv, H37Rv. M. tuberculosis H37Rv growth with meropenem, percent inhibition; hits of this screen are not shown here. hit rate 0.27% among 330,000. inhibition, % at 25 µM. AID 434955, 2010;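 active = about 74% or more and at least 40 points above the plate without the antibiotic, then above 30% in a dose series; inconclusive = first-round hits that could not be retested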;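 also: growth measured after seven days incubation then overnight dye step; 0% = bacteria only wells and 100% = bacteria with antibiotic; twin plates without the antibiotic show which effects depend on it; some results filed as inactive read as strong as hits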
Arbovirus inh – antivirals against arbovirus infection, primary screen, cell-based, full library, 10K replicate subset | arbovirus infection cell-based antiviral screen | inhibition, % at 10 µM | hit rate 0.37% among 200,000 | AID 1251, 2008;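 active = inhibition from about 30%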;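 also: bluetongue infection of BSR cells; cell survival read as ATP light after 72 h; 0% = infected wells without compound and 100% = uninfected wells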
Arbovirus inh repeat – further read-out of Arbovirus inh, marked with its call; inhibition, %; measured here: 10K subset replicate screen; many hits read low in the repeat;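 first of two repeat runs on a subset; 0% = infected and 100% = uninfected wells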
* = called active by the depositor; ? = inconclusive; nt = no result given; & = joins results of further samples. These rows are one share of the data, so the mix of outcomes need not match the whole.

SMILES	YopH PTP inh	RecA intein inh	Mtb growth	Mtb bLac sens	Arbovirus inh	others
c1coc(CN=C2NC(=NCc3ccco3)c3ccccc32)c1	-41	1.3	7%	2	-1
Nc1nnc(COc2ccccc2)s1	-20	-0.2	-8%	0	-1
COc1ccccc1OCCNc1cc(N2CCCCC2)ccc1[N+](=O)[O-]	-10	-1.3	3%	0	11
Cc1ccc(C(C)C)c(OCC(=O)Nc2ccc(Cl)cn2)c1	-21	0.9	3%	7	1
CC(C)Cc1nnc(NC(=O)c2cc(S(=O)(=O)N(C)C)ccc2N2CCCC2)s1	nt	-1.0	nt	-6	nt
O=C1OCCN1c1c(-c2ccccc2)c(-c2cccs2)nc2c(-c3ccccc3)cccc12	nt	-3.7	nt	12	nt
COc1ccc2c(c1)Cc1sc(NC(=O)c3ccco3)nc1-2	1	nt	0%	13	3
CNC(=S)N1N=C(c2cccs2)CC1c1ccc(F)cc1 (stereo unspecified)	nt	-0.9	nt	-2	nt
Cn1nnnc1SCc1nc2scc(-c3ccc(Cl)cc3)c2c(=O)[nH]1	nt	-7.3	-1%	3	nt
CC(=O)c1ccc(NS(=O)(=O)Cc2ccccc2)cc1	-43	1.9	-3%	-2	0
COC(=O)c1ccc(NC(=O)CCC(=O)c2ccc(F)cc2)cc1	nt	-2.0	nt	15	nt
COCCNC(=O)c1cccc(NC(=O)C2=C(C)OCCS2)c1	nt	0.8	nt	6	nt
Nc1ncnc(Nc2ccc(F)c(Cl)c2)n1	nt	-1.3	2%	26	nt
Cc1nc(CN(C)C(=O)c2ccccc2OC2CCN(S(C)(=O)=O)CC2)cs1	nt	-1.8	-9%	1	-4
CSc1ccc(C2C3(C#N)C(N)=NC4(OCCO4)C23C#N)cc1 (stereo unspecified)	-45	-5.3	-7%	-13	8
COC(=O)C(Cc1c[nH]c2ccccc12)NC(=O)c1ccccc1Br (stereo unspecified)	nt	0.5	nt	-2	nt
CCOC(=O)N1CCC2(CC1)C(C#N)=C(N)Oc1n[nH]c(C)c12	0	80*	-8%	-12	3
O=C1NCCc2c1[nH]c1ccccc21	-3	0.8	-13%&-5%	-3	4
O=S(=O)(c1ccccc1)c1nnn2c1nc(NC1CCN(Cc3ccccc3)CC1)c1cc(Cl)ccc12	nt	-3.8	nt	10	nt
CC1CCN(CCOCCOc2ccc(Br)cc2Cl)CC1	-18	-0.3	11%	-12	-38
CCCCOc1ccccc1-c1cc(C(=O)O)[nH]n1	-46	4.2	11%	-4	12
CN1CCN(C(=S)Nc2cc(S(=O)(=O)N3CCOCC3)ccc2Cl)CC1	nt	-8.2	-8%	-15	1
COc1cccc(CNS(=O)(=O)c2ccc(N3CCCC3=O)cc2)c1	nt	-1.4	nt	0	nt
Cc1ccc(NC(=O)CN(C)C(=O)C2COc3ccccc3O2)cc1 (stereo unspecified)	nt	-0.7	6%	0	5
Oc1ccc(-c2cccc(-c3ccc(O)cc3)n2)cc1	-27	5.2	2%	12	18

Overlap with the part before: 4 compounds, then new ones.
SMILES	YopH PTP inh	RecA intein inh	Mtb growth	Mtb bLac sens	Arbovirus inh	others
CN1CCN(C(=S)Nc2cc(S(=O)(=O)N3CCOCC3)ccc2Cl)CC1	nt	-8.2	-8%	-15	1
COc1cccc(CNS(=O)(=O)c2ccc(N3CCCC3=O)cc2)c1	nt	-1.4	nt	0	nt
Cc1ccc(NC(=O)CN(C)C(=O)C2COc3ccccc3O2)cc1 (stereo unspecified)	nt	-0.7	6%	0	5
Oc1ccc(-c2cccc(-c3ccc(O)cc3)n2)cc1	-27	5.2	2%	12	18
CC(C)N(Cc1cc2ccccc2[nH]c1=O)C(=O)c1ccco1	nt	-1.0	0%	-1	6
COc1ccc(OC)c(S(=O)(=O)Nc2cc(C(=O)O)ccc2N2CC3CC(C2)c2cccc(=O)n2C3)c1 (stereo unspecified)	nt	0.2	-9%	-6	1
Cc1ccc(-n2nnnc2SCC(=O)Nc2ccc3c(c2)OCCO3)cc1C	-16	-0.2	-1%	1	-3
O=C(c1ccco1)N1CCN(C(=O)c2cccs2)CC1	-20	-0.7	-4%	3	6
CCCCN=C[C@]12CCC(O)CC1(O)CCC1[C@@H]2CC[C@]2(C)[C@H](C3C=CC(=O)O3)CCC12O (stereo partly specified)	nt	-2.1	nt	-9	nt
CC1CCCC(C)N1C(=O)C1CC(c2ccc(F)cc2)=NO1 (stereo unspecified)	-49	-0.6	-6%	17	5
C=CCOc1cccc(C2/C(=C(\O)c3ccc4c(c3)OCCO4)C(=O)C(=O)N2CCN2CCOCC2)c1 (stereo unspecified)	nt	0.1	nt	0	nt
O=C(Nc1ccncc1)Nc1ccncc1	nt	-1.2	7%	6	2
COCCn1c(-c2cccs2)nc2nc3ccccc3nc21	nt	-161	-4%	-6	nt
Cc1ccc(C(=O)CCC(=O)NCc2ccccc2)cc1	nt	4.5	nt	4	nt
O=C(Oc1cccc(NC2=NS(=O)(=O)c3ccccc32)c1)c1cccnc1	nt	2.9	-4%	1	-5
O=c1[nH]c2ccc(F)cc2[nH]c1=O	nt	8.2	-1%	1	2
COc1cc(C(=O)N(CCCO)Cc2cc3ccc(C)c(C)c3[nH]c2=O)cc(OC)c1OC	0	0.6	-6%	-1	5
COc1cccc(CN2CCNC(=O)C2CC(=O)NC2CCOCC2)c1OC (stereo unspecified)	nt	-1.3	nt	-6	nt
CCOc1ccccc1NC(=O)C1Cc2ccccc2CN1S(C)(=O)=O (stereo unspecified)	-21	3.5	-9%	11	-4	Arbovirus inh repeat=-2
CC(=O)c1sc(N/N=C\c2ccc(Br)cc2)nc1C	-63	-2.0	30%	?	2
CC(=O)c1ccc(N2CCN(C(=O)CN(C)S(=O)(=O)c3cnc[nH]3)CC2)cc1	nt	-0.2	-2%	-7	4
COc1ccc(NC(=O)CC2C(=O)N(c3ccc(OC)cc3)C(=O)N2Cc2ccc(OC)c(OC)c2)cc1 (stereo unspecified)	nt	1.6	2%	3	-2
CN1C(C(=O)NCc2ccco2)CC2Cn3c(nc4cc5ccccc5cc43)C21 (stereo unspecified)	nt	0.6	-15%	4	nt
CCc1ccc(NC(=O)C2CCN(c3ncnc4c3nc3n4CCCCC3)CC2)cc1	nt	-2.4	nt	-1	nt
NS(=O)(=O)c1ccc(CNC(=O)c2cnccn2)cc1	nt	-0.2	-6%	-14	nt
CCOC(=O)/C(C(=O)Nc1ccccc1Br)=C1/NC(C)(C)Cc2ccccc21	-38	1.1	3%	2	-6
COc1cccc(C(=O)Nc2cccc3cccnc23)c1OC	nt	-0.2	nt	-1	nt
CNC(=O)c1ccc(-c2sc3nc(N4CCOCC4)c4c(c3c2N)CC(C)(C)OC4)o1	5	nt	-6%	1	1
CN(C)Cc1c(C(=O)N/N=C/c2cccc(OCc3c(F)cccc3Cl)c2)nnn1-c1nonc1N	nt	-0.2	nt	0	nt

Carrying on.
SMILES	YopH PTP inh	RecA intein inh	Mtb growth	Mtb bLac sens	Arbovirus inh	others
CC(COc1ccccc1)N1CCC(CO)(CCc2ccccc2)CC1 (stereo unspecified)	nt	1.2	-6%	6	-20
COc1ccc(C)cc1N(CC(=O)N/N=C/c1ccccc1C(=O)O)S(=O)(=O)c1ccccc1	nt	-1.7	4%	2	13
O=c1c2[nH]c3ccc(F)cc3c2ncn1CCCN1CCOCC1	-27	0.2	-3%	-7	4
COc1ccc(CN2CCC(CO)(Cc3ccccc3)CC2)cc1Cn1cccn1	nt	-0.3	4%	-1	-14
COc1ccc(OC)c(N(CC(=O)NCCSCc2ccco2)S(=O)(=O)c2ccccc2)c1	nt	4.6	nt	-14	nt
CC(Oc1ccccc1)C(=O)Nc1cc(Cl)ccc1-n1cncn1 (stereo unspecified)	nt	2.0	nt	-2	nt
Cc1ccc(C)c(NC(=O)CCn2nc(C)cc2C)c1	-42	-0.1	-1%	0	8
CN(CCN1CCOCC1)Cc1nc(-c2ccc3c(c2)OCO3)no1	nt	3.0	-1%	-7	-1
CCOC(=O)N1CCC(NC(=O)c2cc3c(C)nc4ccccc4c3o2)CC1	-57	5.0	4%	-7	-2	Arbovirus inh repeat=-1
COC(=O)c1ccc(C(=O)O)nc1	nt	-0.1	-3%	1	nt
Cc1ccc(C(=O)NCC(=O)NC2CCCC2)cc1	nt	-1.2	3%	1	3
O=C(COC(=O)/C=C/c1cccc(Cl)c1)NCCc1ccc(Cl)cc1Cl	-9	0.1	10%	?	13
COc1ccc(C2C3=C(CCCC3=O)NC3=C2C(=O)c2ccccc23)cc1 (stereo unspecified)	nt	nt	7%	3	nt
O=C(Nc1ccc(S(=O)(=O)Nc2nccs2)cc1)c1ccc(N2C(=O)c3ccccc3C2=O)cc1	nt	0.7	7%	-2	-1
Cc1ccccc1C(=O)N1CCC(C(=O)Nc2ccc(F)cc2)CC1	-27	-1.3	-3%	1	0
CCOc1cccc(OCCNC2CCCC2)c1	nt	-2.5	4%	2	-8
Cc1ccc(C(=O)NCC(C)(C)O)cc1	-33	2.4	-3%	-9	4
COc1cccc(N2CC(O)=C(c3nc4ccccc4c(=O)[nH]3)C2=N)c1	-21	-5.6	-1%	-5	-9
Cc1cccc(-c2nnc(SCC(=O)NCc3ccc4c(c3)OCO4)n2C)c1	-12	-1.3	7%	-17	1
CCCCc1nc2ccccc2c(NC(=O)CNC(C)(C)C)c1CCC	-16	0.1	7%	-4	8
CC(C)C[C@H](NC(=O)c1nc[nH]c1C(=O)NCC(=O)OCc1ccccc1)C(=O)OC(C)(C)C	nt	-2.4	nt	9	nt
CCOc1cccc2cc(C(=O)NCc3ccc(OC)cc3)c(=N)oc12	nt	4.8	nt	-14	nt
O=C(N/C(=C/c1cccs1)c1nc2ccccc2[nH]1)c1ccccc1	-47	0.0	-10%	-2	-8
C=CCn1c(C)c(C(C)=O)c(N2CCN(c3ccccc3)CC2)nc1=S	1	2.7	-4%	-12	3
Cc1cccc(Nc2nnc(SC/C(O)=C(\C#N)c3nc4ccccc4[nH]3)s2)c1	-23	1.5	6%	7	15

(cont.)
SMILES	YopH PTP inh	RecA intein inh	Mtb growth	Mtb bLac sens	Arbovirus inh	others
CC(=O)Oc1ccc2nc(/C=C/c3ccc(C=O)cc3)oc(=O)c2c1	nt	-0.2	nt	20	nt
COc1cccc(C(=O)NCCN2CCOCC2)c1	-34	-3.8	-6%	2	9
O=C(CCNc1n[nH]c(=O)[nH]c1=O)N/N=C\c1cccc(OCc2ccccc2)c1	nt	-0.8	2%	-1	-1
Cc1cc(Oc2cc(N)cc([N+](=O)[O-])c2)ccc1Cl	-28	-5.9	9%	-1	0
CC(C)CC(=O)N=C1SC2CS(=O)(=O)CC2N1CCc1ccccc1 (stereo unspecified)	-29	1.4	-19%	-2	-1
COC(=O)C1C(c2ccc(Cl)cc2)NC(c2ccc(Cl)cc2)C(C(=O)OC)S1(=O)=O (stereo unspecified)	-13	-1.6	2%	-1	7
O=[N+]([O-])c1cccc(-c2cc(-c3cc(Br)ccc3O)[nH]n2)c1	nt	1.3	nt	12	nt
Fc1ccc(-c2csc(-c3ccccn3)n2)cc1F	nt	nt	5%	0	4
Cc1cc(C)cc(NC(=O)CN(Cc2ccccc2)S(C)(=O)=O)c1	-21	1.9	nt	-9	1
CCOC(=O)Cc1csc(NC(=O)NC2(C(F)(F)F)Oc3cc(Cl)c(Cl)cc3O2)n1	1	-3.7	3%	0	-9
CC1=C(C(=O)N(C)C)C(c2ccc(N3CCOCC3)cc2)NC(=O)N1 (stereo unspecified)	nt	0.0	2%	-2	5
COCCSc1ncnc2c1oc1nc3c(cc12)COC(C)(C)C3	nt	-1.2	1%	-2	nt
CCC(=O)Nc1c2c(nn1-c1ccc(F)cc1)CS(=O)(=O)C2	nt	1.6	nt	-3	nt
Cc1nnc(N2CCC(C(=O)N3CCCCCC3)CC2)c2nn(-c3ccc(Cl)cc3)c(C)c12	nt	-0.9	nt	16	nt
O=C(Cn1cc2c(n1)CCCCC2)N1CCc2ccccc21	-26	-1.6	-12%	-5	-4	Arbovirus inh repeat=-5
O=S1(=O)CC(O)C(NCCO)C1 (stereo unspecified)	nt	2.5	-3%	4	-2
COC(=O)c1ccc(NC(=O)Nc2ccccc2C)cc1	nt	1.7	6%	-5	-2
COC(=O)C1=C(C)N=C2SC(C)C(=O)N2C1/C=C/c1ccccc1OC (stereo unspecified)	-44	15	3%	-1	-1
COc1ccc(CN2C(=O)c3cccnc3C2=O)cc1S(=O)(=O)N1CC(C)CC(C)C1 (stereo unspecified)	nt	1.3	nt	-3	nt
